Screening data deposited in PubChem by Fisher Drug Discovery Resource Center.
NPYLR7 agonist: agonists of mosquito NPYLR7 receptor, primary screen, cell-based, Aedes aegypti, calcium fluorescence, mosquito biting behavior; HEK293T NPYLR7/Galpha15, GCaMP6s calcium fluorescence; 0.15% of 270,000 active; activation, % at 10 µM; AID 1259423, 2018; in the data active means activation above about 40%;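 further: 0% = vehicle and 100% = reference agonist at the receptor; some compounds past the cut are filed as inactive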
NPYLR7 agonist max-min: recorded beside NPYLR7 agonist, whose call it bears; activation, %; measured here: Max-Min RFU normalised activation; some inactives read as strong as hits;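 span of the calcium signal over five minutes; 0% = vehicle and 100% = native peptide agonist; compound fluorescence can raise it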
Starred values were filed as active, the others as inactive. These rows are one share of the data; the hit share may differ from the screen's.

item | structure | NPYLR7 agonist | NPYLR7 agonist max-min
1 | CC1CCN(Cc2nnnn2CCCC(=O)N(C)CCC(O)c2ccccc2)CC1 (stereo unspecified) | 10 | 1
2 | CC1(C(=O)NCc2ccc(Cl)cc2)CCN1C(=O)Cc1cccs1 (stereo unspecified) | -2 | -3
3 | CCOC(=O)N1CCc2c(sc(NC(C)=O)c2-c2nc3ccccc3s2)C1 | 3 | 2
4 | CCn1c(C2CCCN(C(=O)/C=C/c3cnn(C)c3)C2)n[nH]c1=O (stereo unspecified) | 13 | 10
5 | CC(C)N(Cc1ccc(OS(=O)(=O)c2cccc(C(F)(F)F)c2)cc1)C(=O)Nc1ccc(F)c(F)c1 | 7 | 15
6 | CC(c1ccccc1)N(Cc1cc(N)ccc1N(C)C)C(=O)CC(C)(C)C (stereo unspecified) | -7 | -5
7 | C#CCN(C)C(=O)c1cc(C)c(C)c(S(N)(=O)=O)c1 | -6 | -7
8 | C=c1cc(C)n(CC(=O)Nc2ccccc2OCC)c(=O)c1=C1N=C(c2ccc(OC)cc2)NO1 | -1 | -1
9 | Cc1cc(C)n(CCN(C(=O)CSc2ccc(F)cc2)c2nc3ccccc3s2)n1 | -15 | -19
10 | O=C(c1ccccc1)N1N=C(C(F)(F)F)CC1(O)C(F)(F)F (stereo unspecified) | 3 | 3
11 | Cc1csc(SCc2cc(=O)c(OC(=O)c3cc(Cl)ccc3[N+](=O)[O-])co2)n1 | -4 | -8
12 | CC1CCCC(NC(=O)c2ccc(NC(C)C)nc2)C1 (stereo unspecified) | -11 | -12
13 | CC(=O)N[C@H]1C[C@@H](c2cnn(-c3cccc(C)c3)c2)O[C@@H](C(C)C)C1 | 4 | 2
14 | N#CC1CCN(C(=O)Nc2ccc(OCC3CCCCC3)cc2)CC1 | 2 | -1
15 | COc1ccc(C(=O)CCNc2ccc3c(c2)OC(C)C(=O)N3)cc1OC (stereo unspecified) | 6 | 4
16 | COc1cccc(C(=O)N2CCCC(c3nnc4ccc(C(F)(F)F)cn34)C2)c1O (stereo unspecified) | 16 | 4
17 | S=c1n(CN2CCOCC2)nc(Cc2cccs2)n1C1CCCCC1 | 5 | 3
18 | COc1ccc(OC)c(CC(=O)NCCN2C(=O)SC(=Cc3ccccc3)C2=O)c1 | -1 | -1
19 | CCC1NC(=O)c2ccccc2N1c1cccc(Cl)c1 (stereo unspecified) | -6 | -8
20 | N#CCCN(Cc1ccccc1)C(=O)CCNc1ccc(-n2ccnc2)cc1[N+](=O)[O-] | 4 | 3
21 | Cc1cc(CSC(C)C(=O)NC2CCCCC2)no1 (stereo unspecified) | -7 | -7
22 | CC1=NN(Cc2ccc(Cl)c(Cl)c2)c2nc3c(c(=O)n(C)c(=O)n3C)n2C1 | -8 | -10
23 | CC1(C)CC(O)C(C)(C)c2ccccc21 (stereo unspecified) | -6 | -10
24 | Cc1ccccc1C1=NOC(CN(Cc2ccccc2)CC(O)COCc2ccccc2)C1 (stereo unspecified) | -4 | 2
25 | COc1ccc(C(=O)N2CCC3(CC2)SCCN3C(=O)C2CCCC2)cc1 | 21 | 28
26 | COc1cccc(-c2cc3c(n(Cc4ccccn4)c2=O)CCN(C(=O)c2cc(C)nn2C)C3)c1 | 16 | 4
27 | CCc1nc(C(=O)Nc2nc(C#N)c(C#N)[nH]2)nn1-c1ccccc1Cl | -1 | -3
28 | CCOc1ccc2nc(N3CCCC(N(C)CCCN4CCOCC4)CC3)nc(C)c2c1 (stereo unspecified) | 5 | 0
29 | CCOC(=O)N1CCN(C(=O)CN(c2cccc(F)c2)S(C)(=O)=O)CC1 | 25 | 27
30 | CCOc1cc(C(=O)N2CCOC(COCc3ccccc3F)C2)ccc1OC (stereo unspecified) | -10 | -5
31 | Cc1cc(C)c2oc(-c3ccc(C)c(NC(=O)c4ccc(F)cc4)c3)nc2c1 | 11 | 12
32 | CCc1ncc(CN2CCC(C(=O)Nc3cccc(-c4cccc(F)c4)c3)CC2)cn1 | 8 | 1
33 | O=C1c2ccccc2C(=O)N1CCc1nnn(CC(O)COc2ccc(Br)cc2)n1 (stereo unspecified) | -6 | -6
34 | Cc1ccoc1C(=O)NCCN1C(=O)S/C(=C/c2ccccc2Cl)C1=O | 5 | 2
35 | O=C1c2ccccc2S(=O)(=O)N1CCOc1ccc(Cl)cc1Cl | -9 | -14
36 | CC(=O)NC1C(OCc2ccccc2)OC(COC(C)=O)C(OC(C)=O)C1OC(C)=O (stereo unspecified) | 4 | 8

Quoted at random: two compounds from above.
item | structure | NPYLR7 agonist | NPYLR7 agonist max-min
33 | O=C1c2ccccc2C(=O)N1CCc1nnn(CC(O)COc2ccc(Br)cc2)n1 (stereo unspecified) | -6 | -6
29 | CCOC(=O)N1CCN(C(=O)CN(c2cccc(F)c2)S(C)(=O)=O)CC1 | 25 | 27

Next structures follow.
item | structure | NPYLR7 agonist | NPYLR7 agonist max-min
37 | Cc1ccc(C)c(-n2c(CNC(=O)c3ccco3)nnc2SCC(=O)Nc2nnc(C)s2)c1 | 7 | 2
38 | O=C(CCCc1ccccc1)N1CCN(c2ccc(-n3cccn3)nn2)CC1 | -3 | -10
39 | C=CCNC(=O)Cn1nnc(-c2ccc(F)cc2)n1 | 4 | 2
40 | COc1ccc(-c2cc(NS(=O)(=O)c3ccccc3)n(C3CCS(=O)(=O)C3)n2)cc1 (stereo unspecified) | -1 | -2
41 | CCOc1ccc(NC(=O)N2CCc3cc(OC)c(OC)cc3C2CNC(=O)c2ccccc2Cl)cc1 (stereo unspecified) | 7 | 10
42 | Cc1ccc(C)c(CNc2cccc(C(=O)N3CCC(O)CC3)c2)c1 | 6 | 2
43 | CNC(=O)[C@@H]1C[C@@H](N)CN1C(=O)c1ccc(-n2nc(C)cc2C)cc1 | -1 | -5
44 | CC(=O)Nc1ccc(-c2nc(C3(c4ccc(F)cc4)CCOC3)no2)c(C)c1 (stereo unspecified) | 13 | 5
45 | CCS(=O)(=O)N1CCC(C(=O)Nc2cc(Cl)ccc2Oc2ccc(Cl)cc2)CC1 | 0 | -2
46 | Cc1cccc(NC(=O)CCC2CCN(C(=O)Cc3cccnc3)CC2)c1 | 8 | 0
47 | Cn1c(=O)c(C(=O)Nc2ccccc2F)c(O)c2ccccc21 | -5 | -9
48 | CCn1c(C2CCN(C(=O)Cc3sc(C)nc3C)CC2)nn(C)c1=O | 7 | 7

Along the list, from the results shown.
Entries 37 to 45 in NPYLR7 agonist, in turn: 7, -3, 4, -1, 7, 6, -1, 13, 0
Entries 37 to 45 in NPYLR7 agonist max-min, in turn: 2, -10, 2, -2, 10, 2, -5, 5, -2

(listing goes on)
item | structure | NPYLR7 agonist | NPYLR7 agonist max-min
49 | CC1CCCCN1CCCNC(=O)C(C1CCCC1)N1CCN(C(=O)/C=C/c2ccccc2)CC1 (stereo unspecified) | -24 | -18
50 | C=CCCC(O)(CCC=C)c1ccc(CN(CCCOC)Cc2ccc(OC)c(OC)c2)o1 | -2 | 6
51 | Cc1nn(C)c(C)c1NC(=O)c1ccc(F)c(F)c1 | 2 | 19
52 | C=C(C)Cn1c(=O)c2c(nc3n(C(C)c4ccccc4)c(C)c(C)n23)n(C)c1=O (stereo unspecified) | 2 | 7
53 | CCOc1nn(CC)cc1-c1nnc(SC)n1C | 12 | 12
54 | O=C(NCc1ccc(C(=O)N2CCCCC2)cc1)c1ccccc1F | 6 | 3
55 | CC(=O)NC(Cc1ccccc1F)C(=O)N1CCN(Cc2ccc(-c3noc(-c4ccco4)n3)cc2)CC1 (stereo unspecified) | 19 | 15
56 | CCOC(=O)C1(C)CCCN1C(=O)c1ccc(F)c(Cl)c1 (stereo unspecified) | 2 | -1
57 | CCC(C)N(Cc1c(-c2ccc(F)cc2)noc1N1CCN(C)CC1)C(=O)NC(C)C (stereo unspecified) | 12 | 13
58 | CN(Cc1ccc(Cl)cc1)Cn1nc(C2CCS(=O)(=O)C2)oc1=S (stereo unspecified) | 9 | 10
59 | COc1cc2c(cc1OC)CC1(CCCC1)N=C2 | -9 | -15
60 | CCNC(=O)N1CCc2onc(C(c3ccccc3)c3ccccc3)c2C1 | 15 | 3
61 | CCOCC(=O)NCC(c1ccc(C)cc1)N1CCN(C)CC1 (stereo unspecified) | -1 | -5
62 | Cc1cccc(CSc2nc(Oc3ccccc3F)cc(C(F)(F)F)n2)c1 | 0 | 4
63 | Cc1c(O)ccc(-c2[nH]ncc2-c2nc3ccccc3s2)c1O | -4 | -8
64 | Cc1cc(C)nc(CN(C)C(=O)c2ccccc2C2CCNC2)c1 (stereo unspecified) | 5 | -1
65 | O=C(CCN(CCCN1CCOCC1)c1nc(-c2cccs2)nc2ccccc12)N1CCCC1 | -4 | 1
66 | CCC(CC)C(=O)N(Cc1ccc(F)cc1)Cc1cc(NC(=O)C2CCCC2)ccc1N(C)C | 5 | 4
67 | CC(C)N(Cc1nccn1C)C1CCCNC1 (stereo unspecified) | 20 | 4
68 | CN(Sc1ccccc1[N+](=O)[O-])c1ccccc1 | 13 | 8
69 | Cc1ccccc1N1CCN(C2CCCN(C(=O)c3cnsn3)C2)CC1 (stereo unspecified) | -1 | -3
70 | O=C(NN=Cc1c[nH]c2ccccc12)c1ccc([N+](=O)[O-])cc1 | 0 | -7
71 | CCCN(Cc1c(C)nn(-c2ccccc2)c1Oc1ccc(C)cc1)CC(O)COc1ccccc1 (stereo unspecified) | 3 | 3
72 | CCOC(=O)CN(CC1CC1)[C@H]1[C@H](O)[C@@H]2O[C@H]1c1ccccc12 | 3 | 5
73 | Cc1ccc(Nc2ncnc3c2nnn3C)cc1C | 12 | 6
74 | CC(NS(=O)(=O)N1CCOCC1)c1ccc(C(F)(F)F)cc1 (stereo unspecified) | -6 | -7
75 | O=C1C(C(c2ccccc2Cl)N2CCN(CCO)CC2)Sc2nc(-c3ccco3)nn21 (stereo unspecified) | -5 | -6
76 | O=S(=O)(c1ccc(Cl)cc1)N1CCCC(Nc2ccc(F)cc2)C1 (stereo unspecified) | 23 | 25
77 | COc1ccc(NC(=O)N(CC(=O)N(Cc2ccc(F)cc2)Cc2sccc2C)C(C)C)c(OC)c1 | -3 | 4
78 | Cc1sc2nc(CNCc3cn(CCC(N)=O)c4ccccc34)cn2c1C | -5 | -7
79 | O=C(Cn1cnc2c(nnn2-c2ccc(OC(F)(F)F)cc2)c1=O)N1CCCCCC1 | -5 | -12
80 | CCOC(=O)[C@@H]1CN(C(=O)OCc2ccccc2)[C@H]2c3ccc(OC)cc3O[C@@H]12 | 4 | 8
81 | CC(=O)N(c1ccccc1)c1nc(C=C2N=C(c3ccccc3Cl)OC2=O)cs1 | 43 | 28
82 | O=C(c1ccc(O)cc1)C1CCN(C(=O)Nc2ccc(F)cc2)CC1 | 14 | 3
83 | Cn1cc(CCOc2ccc(Br)cc2C=O)cn1 | 2 | 2
84 | COc1cc(CN2CCC(C(=O)NC(c3ccc(-c4ccccc4)cc3)c3cnccn3)CC2)cc(OC)c1 (stereo unspecified) | -1 | 5
85 | C/C(CC1CC(C)(C)OC1=O)=N/Nc1nc(-c2ccccc2)cs1 (stereo unspecified) | -4 | -7
86 | O=C1CC(c2ccccc2)CC2=Nc3ccccc3NC(c3ccccc3F)C12 (stereo unspecified) | 0 | 0
87 | COCCn1cc(NC(=O)NCCc2cccc(OC)c2)c2ccccc21 | 15 | 8
88 | CC(=O)NC1CCN(c2ccccc2C(=O)N2CCN(c3ccccc3C)CC2)CC1 | 3 | 4
89 | CCOC(=O)Cn1ncc2ccc(NC(=O)NCC(O)c3ccc(F)c(F)c3)cc21 (stereo unspecified) | -1 | 18
90 | CCCCOC(=O)C(C)Sc1nc2cc(S(=O)(=O)N(CC)CC)ccc2n1Cc1ccco1 (stereo unspecified) | 16 | 6
91 | CCOC(=O)c1sc(NC(=O)c2ccoc2C)nc1C | -1 | -3
92 | COc1cccc(-c2cc(C(=O)NCc3ccco3)n3nc(C(C)(C)C)cc3n2)c1 | 8 | 15
93 | CC1CN(CCCS(C)(=O)=O)CCN1c1ccc2nncn2n1 (stereo unspecified) | 2 | 3
94 | Cc1cc(=O)n(Cc2ccc(Cl)cc2)c(SCC(N)=O)c1C#N | 8 | 1
95 | CC(NC(=O)c1ccc(-c2ccc(F)cc2)s1)c1cccc2ccccc12 (stereo unspecified) | 4 | 1
96 | COc1ccccc1C1Oc2ccccc2C2CC(c3ccccc3)=NN21 (stereo unspecified) | -9 | -19

From compound 92 to 96, as listed above:
item | structure | NPYLR7 agonist | NPYLR7 agonist max-min
92 | COc1cccc(-c2cc(C(=O)NCc3ccco3)n3nc(C(C)(C)C)cc3n2)c1 | 8 | 15
93 | CC1CN(CCCS(C)(=O)=O)CCN1c1ccc2nncn2n1 (stereo unspecified) | 2 | 3
94 | Cc1cc(=O)n(Cc2ccc(Cl)cc2)c(SCC(N)=O)c1C#N | 8 | 1
95 | CC(NC(=O)c1ccc(-c2ccc(F)cc2)s1)c1cccc2ccccc12 (stereo unspecified) | 4 | 1
96 | COc1ccccc1C1Oc2ccccc2C2CC(c3ccccc3)=NN21 (stereo unspecified) | -9 | -19

Next section.
item | structure | NPYLR7 agonist | NPYLR7 agonist max-min
97 | Cc1ccc(CNC(=O)Nc2ccn(Cc3cccnc3)n2)c(C)c1 | 1 | 0
98 | COc1cc(C2CC2(C#N)C(=O)N2CCOCC2)ccc1OCc1ccc(F)cc1 (stereo unspecified) | 2 | 1
99 | Cc1ccc(F)cc1S(=O)(=O)NCC(C)(C)NS(C)(=O)=O | 6 | 6
100 | Cc1cc(CNC(=O)CCNC(=O)c2ccccc2F)c2[nH]c(C)c(C)c2c1 | 6 | 2

A different layout for part of the listing above.
97. Cc1ccc(CNC(=O)Nc2ccn(Cc3cccnc3)n2)c(C)c1
  NPYLR7 agonist = 1 | NPYLR7 agonist max-min = 0
98. COc1cc(C2CC2(C#N)C(=O)N2CCOCC2)ccc1OCc1ccc(F)cc1 (stereo unspecified)
  NPYLR7 agonist = 2 | NPYLR7 agonist max-min = 1
99. Cc1ccc(F)cc1S(=O)(=O)NCC(C)(C)NS(C)(=O)=O
  NPYLR7 agonist = 6 | NPYLR7 agonist max-min = 6
